Assay outcomes deposited in PubChem BioAssay by several laboratories.
CSC inhib = cancer stem cell inhibition | AID 2717 | cancer stem cell-like cells viability, luminescence | 300,000 compounds, 1.1% hits | inhibition, % at 7.5 µM;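 active = mean at 75% or more and at least half the replicates too; tested in HMLE shEcad cells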;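 also: 0% = median of negative and 100% = median of positive control wells; the first replicate is given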
HIV Env fusion = blocks HIV Env-driven cell-cell fusion; HeLa-JRFL Env/CEM21 cell fusion, luciferase; inhibition, % at 12.3 µM; 360,000 compounds, 1.1% hits;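 active = mean replicate inhibition score of at least 50 and every replicate individually at or above 50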;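 also: 0% = plate neutral controls and 100% = maraviroc near 300 nM; one replicate is shown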
Yeast UUG start = alters start codon recognition fidelity in yeast; 350,000 compounds, 0.13% hits; AID 602363; activity score, % at 18.7 µM; S. cerevisiae UUG-firefly luciferase reporter, luminescence/redox ratio;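 active = replicate mean at a twofold rise or more, about +100% in these data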;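 also: firefly luciferase made from a UUG start codon reports start codon fidelity; reporter light over untreated wells divided by growth signal over untreated wells; some hits fall short of that in this replicate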
MT1-MMP act inh = MT1-MMP (human) activation inhibition; P50281; HT1080 RFP-PRO-GFP cells, GFP/RFP ratio fluorescence, overnight; percent of plate control window, DMSO zero; GFP/RFP ratio change, % at 20 µM; 360,000 compounds, 0.061% hits;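 active = GFP/RFP ratio change of at least 30% with cell ATP level not reduced by more than half and red fluorescence within 50% of control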; also: strong numbers were not always called active
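Compound: 20 µM single dose, 1% DMSO / System: HT1080 RFP-PRO-GFP cells / Controls: DMSO and RFP-L50D-GFP cell wells / Read-out basis: GFP/RFP fluorescence ratio / Schedule: overnight compound exposure at 37 °C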
eIF4H FP inh = inhibitors of RNA binding by human eIF4H; inhibition, % at 35 µM; Q15056; 290,000 compounds, 0.94% hits; eIF4H fluorescence polarization binding assay;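 active = 50% or more with normal probe brightness, or confirmed in later tests; about a fifth of its hits are not listed in these tables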;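 also: calls also rest on retests at 20 µM and on dose response follow-up; 0% = protein and probe with vehicle and 100% = probe without protein; strong numbers were not always called active; many hits fall short of the cut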
Rce1 inh = blocks yeast Ras-converting enzyme | 290,000 compounds, 0.27% hits | calls only | Q03530 | yeast membranes, quenched prenylated peptide cleavage fluorescence;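 active = fall in fluorescence gain of 50% or more versus controls, with final raw signal at or below 3038400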;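 also: plate controls were neutral control wells for no effect and wells lacking membranes for full effect; tested at 10 µM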
Target sequence (Q03530 whole entry, looked up): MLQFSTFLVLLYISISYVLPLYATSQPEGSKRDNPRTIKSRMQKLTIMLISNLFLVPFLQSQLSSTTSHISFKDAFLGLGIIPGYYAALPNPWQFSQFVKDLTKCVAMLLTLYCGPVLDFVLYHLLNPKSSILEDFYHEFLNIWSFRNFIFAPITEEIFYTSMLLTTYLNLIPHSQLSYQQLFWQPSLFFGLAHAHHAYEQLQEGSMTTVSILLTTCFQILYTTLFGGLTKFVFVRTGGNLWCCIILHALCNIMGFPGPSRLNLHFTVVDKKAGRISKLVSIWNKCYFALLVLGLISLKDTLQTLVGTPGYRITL
PABP FP inh = PABP-poly(A) binding inhibition; P11940; PABP-poly(A) RNA binding, fluorescence polarization; inhibition, % at 35 µM; 290,000 compounds, 1% hits; AID 2014;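 active = 50% or more with normal probe brightness, or confirmed in later tests; about a fifth of its hits are not listed in these tables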;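 also: calls also rest on retests at 20 µM and on dose response follow-up; controls were probe without protein and protein plus probe with vehicle; some compounds called inactive have numbers as strong as hits; many hits fall short of the cut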
MT1-MMP act inh RFP = recorded beside MT1-MMP act inh, whose call it bears; RFP signal change, %; measured here: RFP expression control read;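 0 = vehicle wells; hits needed this value within 50% of zero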
An asterisk follows results filed as active; i = inactive; . = not tested or not shown; + = active, no number. The list is partial; count on the stated rates, not on these rows.

SMILES	CSC inhib	HIV Env fusion	Yeast UUG start	MT1-MMP act inh	MT1-MMP act inh RFP	eIF4H FP inh	Rce1 inh	PABP FP inh
O=C(O)CCc1nc2ccccc2n(CCc2ccccc2)c1=O	-3	.	-13	3	7	-5	i	-4
CCOC(=O)[C@H]1[C@H]2COc3ccc(Br)cc3[C@@H]2N2C(=O)c3cc(Br)ccc3NC(=O)[C@@]12C	9	6	-13	-11	-5	.	.	.
COc1cccc(CN(C)CC(=O)Nc2ccccc2C(C)C)c1	.	18	.	-3	-6	-2	i	-1
C[C@@H]1CN([C@@H](C)CO)C(=O)Cc2cc(NC(=O)Nc3ccc4c(c3)OCO4)ccc2O[C@@H]1CN(C)C(=O)NC1CCCCC1	.	0	9	1	1	.	.	.
COc1ccccc1N1CCN(C2CCCN(C(=O)CCn3cncn3)C2)CC1 (configuration not stated)	9	-38	-5	-1	3	-9	i	-6
Cc1cccc(-c2nc3c(c(SCC(=O)N(C)C)n2)CCCC3)c1	-1	.	-9	-1	-1	2	i	10
Cc1ccc(C2(C)NC(=O)N(CC(=O)Nc3ccc4c(c3)OCO4)C2=O)cc1 (configuration not stated)	5	-48	-2	4	2	-1	i	5
CCC(=O)NNc1ccc(Br)cc1	80*	-14	.	3	4	-2	i	-1
CC1=C(C(=O)Nc2ccccc2)C(c2ccco2)NC(=S)N1 (configuration not stated)	-9	28	-16	-1	1	-7	i	0
S=c1[nH]nc(-c2ccccc2)o1	-10	.	12	2	6	-1	+	-1
CCC(C)(C)n1nnnc1C(c1ccc(C)cc1)N1CCN(Cc2cccnc2)CC1 (configuration not stated)	-5	.	-51	1	1	-2	i	10
Cc1c(C(=O)N(C)CCC#N)oc2ccc(S(=O)(=O)N3CC(C)CC(C)C3)cc12 (configuration not stated)	-3	-2	4	0	-9	-13	i	-2
CCOC(=O)C1=C(C)OC(N)=C(C#N)C1c1ccsc1 (configuration not stated)	.	.	.	2	5	0	i	8
Cc1cccc(-c2nnc(NC(=O)c3ccc(N4C(=O)CCC4=O)cc3)s2)c1	-7	8	8	8	-1	2	i	-3
Cc1ccc2c(c1)c1c(c(=O)n(-c3ccccc3)c(=O)n1CC(=O)NCC1CCCO1)n2C (configuration not stated)	-8	4	-9	0	2	-5	i	17
COc1ccc(NS(=O)(=O)c2cccc(C(=O)N3CCCCCC3)c2)cc1	-9	-1	-16	0	-4	.	i	.
O=C(N/N=C/c1coc2ccccc2c1=O)c1cccc([N+](=O)[O-])c1	-9	-11	-9	-4	-2	1	i	-19
CCC(C)(C(=O)NC1CCCCC1)N(C(=O)c1ccccn1)c1ccccc1 (configuration not stated)	-3	-24	.	5	2	-5	i	-9
N#C/C(=C\c1cccs1)C(=O)Nc1nccs1	2	-41	.	0	-2	19	i	15
COCCNc1nc2sc3c(c2c(=O)n1Cc1ccco1)CCCCC3	55	-6	-23	.	.	3	i	-8
COCc1cc(=O)[nH]c(-c2ccc(C(F)(F)F)cc2)n1	-8	4	11	-3	-1	2	i	-3
CSc1nc2c(c(=O)[nH]1)C(c1ccccc1Cl)CC(=O)N2 (configuration not stated)	6	8	.	3	3	4	i	2
Fc1ccccc1Nc1nc(N2CCOCC2)nc(N2CCOCC2)n1	-4	21	-2	-5	-2	-5	i	11
CCCC(C)NC(=O)c1ccc(F)cc1 (configuration not stated)	-12	.	0	5	-2	16	i	10
CCCc1cc(=O)oc2cc3occ(C)c3cc12	.	-11	-10	-3	-1	-4	i	16

Carrying on:
SMILES	CSC inhib	HIV Env fusion	Yeast UUG start	MT1-MMP act inh	MT1-MMP act inh RFP	eIF4H FP inh	Rce1 inh	PABP FP inh
Cc1ccc(C2(c3noc(CN(C)Cc4cnn(C)c4)n3)CCCC2)cc1	-10	16	-9	4	-5	-8	i	-8
C/C(=N\NC(=O)c1ccncc1)c1cccc(NC(=O)c2ccc(C(C)(C)C)cc2)c1	2	-383	-27	9	-1	-1	i	4
Cn1c(N)c(C(=O)COC(=O)/C=C/c2cccc(Br)c2)c(=O)n(C)c1=O	-9	.	-16	2	-2	.	.	.
CCc1cccc(CC)c1NC(=O)C(CC)Sc1nc2ccsc2c(=O)n1CCC(=O)O (configuration not stated)	.	-31	11	5	4	.	.	.
CCOc1ccc(NC(=O)C2CC(=O)N=C(N)S2)cc1 (configuration not stated)	-13	-15	-10	6	7	-1	i	-4
Cc1cc(C)c(C#N)c(SCC(=O)NN2CC(=O)N(c3ccccc3F)CC2=O)n1	-16	.	.	5	3	2	i	8
COc1ccccc1C(=O)NCCC(=O)NCC(c1ccc(F)cc1)N1CCOCC1 (configuration not stated)	-2	12	.	-3	-2	.	i	.
O=Cc1c(NC2CCCCC2)c2ccccc2[nH]c1=O	-15	10	-7	-1	2	-6	i	4
COc1ccccc1-n1cc(-c2ccc(Cl)cc2)[nH]c1=O	-7	0	-13	-2	-1	19	i	3
COc1ccccc1CNC(=O)COC(=O)c1cccnc1SCC(=O)NCc1ccccc1OC	-12	18	-15	-1	0	-9	i	-2
COc1ccc2c(c1)C(=O)CCC2c1ccccc1 (configuration not stated)	-17	11	-16	1	-1	-2	i	6
O=C(O)c1ccccc1C(=O)N1CC=C(c2ccccc2)CC1	-6	.	-9	-3	-3	11	i	-1
O=C(CCSc1ccc(Cl)cc1)NC1CCCCC1	-2	.	.	3	7	-11	i	-11
COc1ccc(CN(CC(=O)NC2CCCCC2)C(=O)CCCC(=O)Nc2ccccn2)cc1	4	3	.	1	7	5	i	-11
Cc1ccc(S(=O)(=O)CC(=O)N2CCN(c3ccc([N+](=O)[O-])cc3)CC2)cc1	11	11	-10	-6	-25	.	.	.
Cc1nc(-c2cccc(NS(C)(=O)=O)c2)cs1	-3	.	-13	1	5	1	i	8
Cc1ccc(NC(=O)CSc2nnc(CNC(=O)c3ccco3)n2C)cc1C	-6	11	.	6	1	.	i	.
CC(=O)N1CCN(c2ccc([N+](=O)[O-])c(-n3nc(C)cc3C)c2)CC1	-1	-8	8	0	1	-5	i	0
C[C@H]1COC(=O)[C@@H](Cc2ccc(F)cc2)C/C=C\C[C@@H](CC(=O)NCCO)C(=O)N1	.	19	-10	0	2	.	.	.
COc1cc(NC(=S)NC(=O)C(C)C)ccc1NC(=O)c1cc2ccccc2o1	5	2	-22	1	2	6	i	-1
Cc1ccc(S(=O)(=O)Nc2cnc3ccccc3c2)cc1	-6	14	.	7	-14	-6	i	15
O=C(CCN1C(=O)c2ccccc2S1(=O)=O)Nc1ccc(F)cc1F	0	.	-4	-1	3	0	i	-4
Nc1nonc1-n1nnc(C(=O)N/N=C/c2ccncc2)c1-c1cccs1	-7	0	-16	-7	-3	-2	i	-6
COc1cccc(NC(=S)NC(=O)/C=C/c2ccc(F)cc2)c1	-17	-23	-12	2	-1	-5	i	1
COc1ccc(-n2ccnc2SCC(=O)NCc2ccco2)c(OC)c1	-6	1	-23	-5	-2	7	i	6

(list continues)
SMILES	CSC inhib	HIV Env fusion	Yeast UUG start	MT1-MMP act inh	MT1-MMP act inh RFP	eIF4H FP inh	Rce1 inh	PABP FP inh
Cc1ccc(SC2CC(=O)N(c3ccc4c(c3)OCCO4)C2=O)cc1 (configuration not stated)	-6	-5	.	-1	3	-8	i	4
O=C(O)CCC/C=C\C[C@@H]1[C@@H](/C=C/[C@@H](O)COc2cccc(Cl)c2)[C@H](O)C[C@@H]1O	1	-63	-25	3	5	-4	i	0
CCN1CCN(C(=O)c2ccccc2N(Cc2ccccc2)S(C)(=O)=O)CC1	-11	-10	-14	-7	-1	-9	i	-2
CC(C)C(NC(=O)C1CCCCC1)C(=O)N1CCN(c2ccc(F)cc2)CC1 (configuration not stated)	4	-22	.	0	-4	8	i	3
COc1ccccc1NC(=O)c1ccccc1NS(C)(=O)=O	-4	.	-21	-3	1	3	i	-10
O=C1c2ccccc2C(Nc2ccc(Cl)cn2)N1c1cccnc1 (configuration not stated)	-10	-18	-12	-2	-1	-4	i	21
Cc1ccc(C(=O)Nc2ccc(F)c(S(=O)(=O)N3CCOCC3)c2)s1	-21	.	-6	5	-7	.	.	.
CCOc1ccc(N2C(=O)CC(NCCNc3ccc(C(=O)c4cccs4)cc3)C2=O)cc1 (configuration not stated)	6	-5	.	-1	-1	11	i	-6
COC(=O)c1ccc2c(c1)N(Cc1nc(-c3ccc(Cl)cc3)oc1C)C(=O)C1CCCN21 (configuration not stated)	10	9	-4	11	4	.	i	.
O=C(O)CCC(=O)Nc1ccc(-c2nc3ccc(C(=O)c4ccccc4)cc3[nH]2)cc1	-6	9	1	6	4	-3	i	10
COC(=O)Nc1sc2c(c1C(N)=O)CCCCCC2	15	-41	-10	-9	-2	4	i	-2
COc1ccccc1NC(=O)Cn1nc(C(F)(F)F)c2c1CCCC2	1	10	-12	1	-5	-2	i	-1
CN1CCN(C(=O)CSc2nnc(COc3ccccc3)o2)CC1	0	-4	-11	2	5	2	i	-4
Cc1ccc(S(=O)(=O)n2c(N)nc3ccccc32)cc1	-3	3	-10	-1	2	-2	i	-2
OCCn1c(C(F)(F)F)nc2ccccc21	-13	.	-8	-6	3	-6	i	4
Cc1ccc(S(=O)(=O)Cc2ccc(C(=O)OCc3ccccc3)cc2)cc1	64	.	-7	1	1	-6	i	3
CCCn1nc(C(=O)Nc2cc(S(=O)(=O)Nc3ccc(OC)cc3)ccc2O)c2ccccc2c1=O	-5	-51	-1	7	-2	.	.	.
C/C(O)=C(\C#N)P(=O)(c1ccccc1)c1ccccc1	-6	3	.	-3	2	1	i	4
Cc1ccc(C(=O)NCCc2cccc(Cl)c2)cc1[N+](=O)[O-]	35	1	.	1	-2	-7	i	-5
O=C(CSc1n[nH]c(-c2ccco2)n1)Nc1ccccc1F	-4	2	3	-1	4	1	i	-4
CCCC(C)c1nnc(NC(=O)C2CC(=O)N(CCc3ccc(F)cc3)C2)s1 (configuration not stated)	.	19	7	1	-4	2	i	3
O=C(CSc1nnc(-c2cccs2)n1CC1CCCO1)N1CCCC1 (configuration not stated)	-16	14	-13	-1	8	4	i	6
Cc1ccccc1NS(=O)(=O)c1ccc2[nH]c(=O)[nH]c2c1	-5	-5	.	2	4	6	i	2
COn1c(SCc2ccc(C)cc2C)nc2ccccc2c1=O	-6	57*	7	-1	-12	1	i	4
Cc1cnc2cc(Cl)ccc2c1SCC(=O)O	-1	-27	-9	2	1	-5	i	14
COCCCN=Cc1c(-c2ccccc2)[nH]n(-c2nc3ccccc3s2)c1=O	-22	-25	-18	11	8	8	i	-4

Gathered by group: the compounds so far with an NH in an aromatic ring
SMILES	CSC inhib	HIV Env fusion	Yeast UUG start	MT1-MMP act inh	MT1-MMP act inh RFP	eIF4H FP inh	Rce1 inh	PABP FP inh
S=c1[nH]nc(-c2ccccc2)o1	-10	.	12	2	6	-1	+	-1
COCc1cc(=O)[nH]c(-c2ccc(C(F)(F)F)cc2)n1	-8	4	11	-3	-1	2	i	-3
CSc1nc2c(c(=O)[nH]1)C(c1ccccc1Cl)CC(=O)N2 (configuration not stated)	6	8	.	3	3	4	i	2
O=Cc1c(NC2CCCCC2)c2ccccc2[nH]c1=O	-15	10	-7	-1	2	-6	i	4
COc1ccccc1-n1cc(-c2ccc(Cl)cc2)[nH]c1=O	-7	0	-13	-2	-1	19	i	3
O=C(O)CCC(=O)Nc1ccc(-c2nc3ccc(C(=O)c4ccccc4)cc3[nH]2)cc1	-6	9	1	6	4	-3	i	10
O=C(CSc1n[nH]c(-c2ccco2)n1)Nc1ccccc1F	-4	2	3	-1	4	1	i	-4
Cc1ccccc1NS(=O)(=O)c1ccc2[nH]c(=O)[nH]c2c1	-5	-5	.	2	4	6	i	2
COCCCN=Cc1c(-c2ccccc2)[nH]n(-c2nc3ccccc3s2)c1=O	-22	-25	-18	11	8	8	i	-4
